# Screening data deposited in PubChem by National Center for Advancing Translational Sciences (NCATS).
# D2 ag: Beta-Arrestin HTS for Positive Allosteric Modulators of the Human D2 Dopamine Receptor: Agonists; D(2) dopamine receptor (Homo sapiens), P14416; DiscoveRx PathHunter D2 beta-arrestin, luminescence, 90 min; 100% = 57 uM dopamine signal; activation, % (test concentration not listed); 360,000 tested, 0.084% active; AID 624465, 2012; in the data active = activation above about 40%; inconclusive = about 15% to 40%; inactive = below about 15%; also: compound concentration not given in the record; the text of the record calls up to 30% inactive
# Target sequence (P14416 whole entry, looked up): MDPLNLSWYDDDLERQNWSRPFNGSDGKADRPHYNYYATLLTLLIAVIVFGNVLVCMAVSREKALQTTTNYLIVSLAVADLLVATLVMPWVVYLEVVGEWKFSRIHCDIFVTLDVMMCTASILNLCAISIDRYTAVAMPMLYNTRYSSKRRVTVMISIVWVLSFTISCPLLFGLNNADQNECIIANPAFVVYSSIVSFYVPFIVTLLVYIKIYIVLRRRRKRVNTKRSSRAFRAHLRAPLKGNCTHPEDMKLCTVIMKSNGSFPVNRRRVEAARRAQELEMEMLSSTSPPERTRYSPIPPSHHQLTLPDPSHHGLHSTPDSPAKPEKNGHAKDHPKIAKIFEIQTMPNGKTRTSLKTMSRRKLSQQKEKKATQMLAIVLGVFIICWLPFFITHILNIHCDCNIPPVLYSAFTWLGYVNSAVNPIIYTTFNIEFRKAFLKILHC
#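 DiscoveRx PathHunter D2 beta-arrestin cells (2,100/well) attached overnight, then compound-stimulated 90 min at 37 C in HBSS/10 mM HEPES/0.1% Tween-20 buffer; beta-galactosidase complementation read by luminescence after 1 h at ambient temperature. Dopamine 57 uM final (EC100) as control.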
# TRPV1 PAM: HTS Assay for Compounds that Act as Potentiators of the Vanilloid Receptor 1; Transient receptor potential cation channel subfamily V member 1 (Homo sapiens), Q8NER1; TRPV1-expressing cells, Fluo-8 calcium influx, capsaicin EC20 potentiation; host cell line not named in the record; control for the full effect not named in the record; potentiation, % at 8.33 µM; 320,000 tested, 0.02% active; AID 540277, 2011; active means potentiation above 80%; inconclusive means 30% to 80%; inactive means below 30%; also: 0% is about no effect
#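 Fluo-8 calcium influx in TRPV1-expressing cells, kinetic read (ex 480/em 520 nm). Compound added and read 3 min for agonist activity, followed by capsaicin at EC20 final and 2 min further read for enhancement.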
# Sfp PPTase inh: qHTS Assay for Inhibitors of Bacillus subtilis Sfp phosphopantetheinyl transferase (PPTase); Biochemical Sfp PPTase activity, qHTS; Potency, µM, without a hit: max response, negative = inhibition, hits mostly inhibitors; 310,000 tested, 3.5% active; AID 1490, 2009; active = well fitted inhibition curve with a large enough effect; inconclusive = small, poorly fitted or top-dose-only effect, or another doubt; inactive = no such curve, though single readings can be large or run the other way;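 also: the enzyme is Sfp with the accession as filed and its product quenches rhodamine fluorescence; potency is read from the fitted curve at half-maximal effect; 0% = enzyme reaction without inhibitor and -100% = no enzyme wells; top concentration of the series not given in the record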
#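 Sfp 15 nM + cpd, 15 min RT; start w/ rhodamine-CoA 5 uM, BHQ-2-YbbR 12.5 uM (final); 50 mM Hepes pH 7.6, 10 mM MgCl2, 0.01% NP-40, 0.01% BSA; read 525/598 nm at 0 and 30 min.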
# D2 PAM: Beta-Arrestin HTS for Positive Allosteric Modulators of the Human D2 Dopamine Receptor: Potentiators; D(2) dopamine receptor (Homo sapiens), P14416; DiscoveRx D2 beta-arrestin cells, luminescence, 90 min; 100% = 57 uM dopamine signal; potentiation, % (no concentration beside the values); 360,000 tested, 0.23% active; active = potentiation of 50% or more; inconclusive = 30% to 50%; inactive = 30% or less;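 also: compound concentration not given in the record; tested on top of an EC20 dose of dopamine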
#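 PathHunter D2 cells, attached overnight at 37 deg C, received compound in DMSO plus dopamine at EC20 (50 nM final) for 90 min at 37 deg C. Beta-arrestin recruitment was read as luminescence after 1 h with detection reagent at ambient temperature.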
# PINK1 expr mod: A Quantitative High throughput Screen to Identify Chemical Modulators of PINK1 Expression; PINK1 immunofluorescence, high-content cytometry, 24 h; Potency, µM (titrated, usually from 76.6 µM), inactives show at the highest dose activation (PINK1 increase), hits mostly activators; 410,000 tested, 0.2% active; AID 624263, 2012; active = well fitted activation curve with a large enough effect; inconclusive = small, poorly fitted or top-dose-only effect; inactive = flat fitted curve, though single readings scatter; cell line not stated here;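 also: potency is read from the fitted curve at half-maximal effect; % of control where 0% means no effect; nearly all actives have a fitted effect of over 65% in size; a mitochondrial uncoupler was the plate control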
#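 Compound titrations (5 concentrations, 24 h) on a stable cell line; DMSO and CCCP controls. Endpoint: fixed-cell PINK1 immunofluorescence with mitochondrial, cell and nuclear markers, scanned by microplate cytometer.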
# Six1-Eya2 inh: qHTS Assay for Inhibitors of the Six1/Eya2 Interaction. Homeobox protein SIX1 (Homo sapiens) + Protein phosphatase EYA2 (Homo sapiens), …. AlphaScreen GST-Six1/His-Eya2 binding, biochemical; stronger effect = lower value; control for the full effect not named in the record. activity change, % (test concentration not listed). 360,000 tested, 0.56% active. AID 651725, 2012; in the data active = activity change below about -65%; inconclusive = about -30% to -65%; inactive = above about -30%; also: % is scaled to controls: 0 for no effect and ±100 for the full control effect; compound concentration not given in the record
#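 Six1/Eya2 binding was read as AlphaScreen signal after compounds were pinned into GST-Six1 plus His-tagged Eya2 (5X stock 250/500 nM) in pH 8.0 Tris/NaCl/TCEP buffer, beads added, then incubated 1 h, 37 C, dark.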
# CtBP-E1A blk: qHTS Assay for Inhibitors of the CtBP/E1A Interaction | activity change, % (no concentration beside the values) | CtBP / adenovirus E1A interaction (AlphaScreen) | 340,000 tested, 0.49% active | AlphaScreen GST-E1A/His-CtBP binding, 1536-well; stronger effect = lower value; control for the full effect not named in the record; in the data active means activity change below about -65%; inconclusive means about -30% to -65%; inactive means above about -30%; also: % is scaled to controls: 0 for no effect and ±100 for the full control effect; compound concentration not given in the record
#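 AlphaScreen with 125 nM GST-E1A and 125 nM His-CtBP (5X stocks) in Tris pH 8.0, 300 mM NaCl, BSA, Tween 20, TCEP. Compounds preincubated 2 h at 37 deg C, then glutathione donor/nickel acceptor beads added for 1 h at 37 deg C in dark.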
# Active calls of the source: *; u = inconclusive; x = no result given; & = joins results of further samples; [ ] = another dose, or the depositor's remark. Hits appear at their usual frequency; about 3.7% have a hit in one of these screens.
SMILES,D2 ag,TRPV1 PAM,Sfp PPTase inh,D2 PAM,PINK1 expr mod,Six1-Eya2 inh,CtBP-E1A blk
Cc1cc(C)nc(CCNC(=O)C2CCC(=O)N(Cc3ccccc3F)C2)n1 (stereo not drawn),-1.5,7,12%,-5,-0.8%,0,4
CSc1ncccc1C(=O)OCC(=O)NC(C)CCc1ccccc1 (stereo not drawn),-4.6,x,x,-8,1.7%,1,2
COc1ccc(/C=C/C(O)=C2/C(=O)N(C)C3(C)CC2c2ccccc2O3)cc1 (stereo not drawn),-0.5,-8,u,2,-1.7%,8,3
COc1ccccc1NS(=O)(=O)c1cc(NC(=O)CCc2nc3ccccc3c(=O)[nH]2)ccc1C,-1.7,26,x,-3,2.6%,u,0
CCN(Cc1nc2ccccc2c(=O)[nH]1)C(=O)c1cc2c(s1)CCCCC2,2.1,u,x,-3,-0.2%,5,-1
CC(C)CC(CO)N1CCN(C(=O)c2ccccc2)CCC1=O (stereo not drawn),0.9,x,x,-17,-0.6%,0,1
Cc1n[nH]c(=O)c2c(NC(=O)CSc3nc4ccccc4c(=O)n3CCCO)oc(C)c12,-6.7,-12,3%,5,0.5%,1,-1
CCCCOC(=O)c1ccc(NC(=O)C(=O)NCC2CCCO2)cc1 (stereo not drawn),-0.8,9,13%,8,0.7%,5,6
Oc1ccccc1CNc1cnc2ccccc2c1,-0.2,-4,-28%,-1,u,-1,-28
Cc1ccc(S(=O)(=O)Nc2ccc3c(c2)C(=O)N([C@@H](C)CO)C[C@@H](C)[C@@H](CN(C)CC2CC2)OCCCC[C@@H](C)O3)cc1,1.1,x,x,-1,3.3%,-2,6
CCc1ccc(NC(=O)C(NS(=O)(=O)c2cccc3nsnc23)c2ccccc2)cc1 (stereo not drawn),-2.5,16,13%,-11,-0.5%&0.1%,-12,-20
ClC1(Cl)CC1Cn1cnc2ccccc21 (stereo not drawn),4.4,0,2%,-11,2.2%,3,-3
COc1ccc(CCNC(=O)CCC(=O)Nc2ccc3nc(N4CCN(C)CC4)cc(C)c3c2)cc1OC,-23,9,13%,-13,-0.7%,-8,x
CC12CCC(C(=O)N(NC(=O)c3ccc(O)cc3)C1=O)C2(C)C (stereo not drawn),0.1,-2,-7%,-3,x,1,-9
COc1cccc(-c2nc(NC(C)C)c3ccccc3n2)c1O,0.1,-3,-3%,12,u,-16,-23
CCc1nnc(NC(=O)CCc2c[nH]c3ccccc23)s1,-0.3,13,11%,3,0.5%,-3,-2
Cc1ccc(S(=O)(=O)N2CCC(C(=O)NC3CC(C)(C)NC(C)(C)C3)CC2)cc1C,-4.0,4,12%,-16,-0.2%,-1,4
COc1ccccc1-c1nc(C#N)c(N2CCN(c3cccc(Cl)c3)CC2)o1,-0.4,u,-12%,0,-2.3%[38.3 µM],-4,-1
O=C1CCC/C(=N\NC(=O)c2ccc(COc3ccccc3-c3ccccc3)cc2)C1,4.5,7,-3%,-2,1.8%,-6,0
COc1cccc(NC(=S)NC2CC(C)CC(C)(C)C2)c1 (stereo not drawn),-0.6,x,x,-10,u,-8,1
COc1cc(NC(=O)C2CC2)c(OC)cc1NC(=O)CCC(=O)NC1CCN(Cc2ccccc2)CC1,-1.8,18,16%,-7,-2.1%,-5,-12
CCOCCCNC(=O)C1CCC(CNS(=O)(=O)c2ccc(Cl)cc2)CC1 (stereo not drawn),-0.7,-17,22%,-8,u,-1,0
N#Cc1nccnc1N1CCN(C(=O)Nc2ccccc2)CC1,-1.6,11,6%,-3,-0.2%,9,0
CCC(CC)C(=O)N1CCN(Cc2nc3ccccc3c(=O)[nH]2)CC1,2.2,11,2%,-3,11%,14,2
COc1ccc(C(=O)CSc2nnc3ccc(-c4ccccn4)nn23)cc1,-4.6,13,11%,-4,0.4%,6,-1

# (list continues)
SMILES,D2 ag,TRPV1 PAM,Sfp PPTase inh,D2 PAM,PINK1 expr mod,Six1-Eya2 inh,CtBP-E1A blk
O=C(O)c1cc2cc(F)ccc2[nH]1,-5.6,-4&4,5%&10%&11%,5,5.4%&1.5%,2,4
O=C(/C=C1\SC(=O)N(CC(=O)Nc2ccc(F)cc2)C1=O)Nc1ccc(Cl)cc1,-2.3,-4,3%,-23,-2.2%,4,2
COc1ccc(N2CCN(C(=O)CSc3nnc4c5cc(C)ccc5n(C)c4n3)CC2)cc1,1.0,-9,-10%,-2,x,1,8
N#Cc1c(N)n(CCc2ccc(F)cc2)c2nc3ccccc3nc12,-0.4,5,12%,12,0.5%,-18,-18
CC1(C)Oc2ccc3ccc(=O)oc3c2C[C@H]1O[C@@H]1O[C@H](CO)[C@@H](O)[C@H](O)[C@H]1O,-0.1,x,x,-31,1.4%,2,0
CC(C)(C)c1nnc(N/N=C/c2cc(Br)ccc2O)n(N)c1=O,u,-6,u,u,-4.2%,-90*,-94*
O=C(CCCOc1ccc(Cl)cc1Cl)N1CCN(c2ccccn2)CC1,1.5,-5,-7%,-12,18%[38.3 µM],-2,-29
Cc1ccc(-n2nc3c(c2NC(=O)C(C)(C)C)CSC3)c(C)c1,0.2,1,71µM*,-4,2.8%[38.3 µM],0,0
O=C(N/N=C/c1c[nH]c2ccccc12)c1cc(-c2cccc3ccccc23)n[nH]1,0.1,12,19%,-3,6.3%,-6,-7
O=C(OCC(=O)c1c[nH]c2ccccc12)c1ccc(Br)o1,-1.0,1,4%,-4,-3.2%[38.3 µM],-1,1
C#CCOCCOCCOCCNc1nc(N2CCN(C(=O)[C@H](CCCCN)n3cc([C@@H](N)[C@H](C)CC)nn3)CC2)nc(N2CCN(C(=O)[C@H](CCCCN)n3cc([C@@H](N)CC(N)=O)nn3)CC2)n1,-3.5,x,x,-9,2.7%,-11,-5
CSc1ccccc1NC(=O)CSCc1nc2sc(C)c(C)c2c(=O)[nH]1,-2.8,6,x,-22,-2.5%,0,-1
COc1ccc(C2CC(c3ccc(Cl)cc3)n3nc(N)nc3N2)cc1 (stereo not drawn),-2.9,x,26%,-1,1.3%,-2,5
CCCCN(CCCC)Cc1cc(=O)oc2cc(C)c(Cl)cc12,6.9,x,x,-6,19%,12,-19
COc1ccc(N(C(=O)CNC(=O)c2cccs2)C(C(=O)NCC2CCCO2)c2ccccc2)cc1OC (stereo not drawn),1.0,9,22%,1,-1.3%,11,x
COc1ccc(CC(=O)NNS(=O)(=O)c2ccc(F)cc2)cc1,-1.7,15,17%,2,1.8%,-6,6
COc1ccccc1NS(=O)(=O)c1ccc(O)c(C(N)=O)c1,-0.6,21,3%,-3,0.4%,12,7
Cn1c(C(=O)N2CCCC(C(=O)c3ccc(C(F)(F)F)cc3)C2)cc(=O)n(C)c1=O (stereo not drawn),-3.7,6,25%,-8,0.4%,-7,6
O=C(C[C@@H]1C/C=C/CC[C@@H](Cc2ccc(F)cc2)C(=O)OCCNC1=O)N[C@H](CO)Cc1ccccc1,1.8,x,x,-29,2.1%,-1,-10
CC1CN(C(=O)CN2C(=O)NC3(CCCCCCC3)C2=O)CC(C)O1 (stereo not drawn),-0.1,-14,9%,-2,-1.3%[38.3 µM],3,0
COc1cc(OC)c2c(C)cc(=O)oc2c1,-0.8,-2,-9%,-7,-2.2%,-5,-13
O=C(NCc1nnc(SCC(=O)N2CCCCC2)o1)c1ccc(F)cc1,-1.0,5,13%,-22,-0.1%,3,-2
C[C@H](NC(=O)C1CCN(S(=O)(=O)c2ccccc2)CC1)C(=O)NCc1cccc(C(F)(F)F)c1,-1.6,18,16%,-6,0.0%,4,2
CC(C)[C@@H]1Cc2[nH][nH]c(=O)c2[C@H](CCc2ccccc2)O1,x,x,x,x,3.9%,-6,2
COCc1c(C(=O)Nc2ccc(Cl)cc2F)oc2ccccc12,-0.2,-2,7%,-10,3.2%,19,-12

# Continuation.
SMILES,D2 ag,TRPV1 PAM,Sfp PPTase inh,D2 PAM,PINK1 expr mod,Six1-Eya2 inh,CtBP-E1A blk
COc1cc(CNC(=O)c2nc(Cn3nc(C)c(Br)c3C)no2)cc(OC)c1,5.2,-45,u,-6,0.6%,-9,-19
c1ccc(CCNc2ncnc3ccccc23)cc1,-2.5,-24,-8%,2,0.7%,8,-13
CSCCC(NC(=O)c1cccc([N+](=O)[O-])c1)c1nc2ccccc2[nH]1 (stereo not drawn),2.3,0,-10%,-41,-2.5%,2,1
O=C(CCNS(=O)(=O)c1ccccc1C(F)(F)F)NNC(=O)c1csc(N2CCOCC2)n1,-1.7,8,x,0,-0.7%,6,5
CCC1Sc2ccc(S(=O)(=O)CCC(=O)Nc3ccc(NC(C)=O)cc3)cc2NC1=O (stereo not drawn),1.8,1,11%,-12,-1.5%,1,-2
CCOc1cccc(C(=O)NNC(=O)C2C3C=CC(C3)C2C(=O)O)c1 (stereo not drawn),0.5,-5,35µM*,-2,1.4%,2,-9
Cc1cc(C)cc(N2C(N)=NC(N)=NC2c2cccc(Cl)c2)c1 (stereo not drawn),-2.7,-19,-12%,-10,1.7%,-4,0
Cc1ccc(Cn2nc(C)c(NC(=O)c3cc(C)no3)c2C)cc1,-0.8,0,22%,-8,-0.5%,6,7
Cc1cc(C)c2sc(NNC(=O)c3ccc(S(=O)(=O)N4CCc5ccccc5C4)cc3)nc2c1,1.4,-21,10%,0,3.9%,-4,-23
